Assay outcomes (PubChem)
TsaE inh: displaces an ADP probe from E. coli YjeE (TsaE) | P0AF67 | purified YjeE, fluorescence polarisation of a bound ADP probe | Potency, µM | actives 0.05% (n = 71,000); active = well fitted falling curve; inconclusive = weaker or top-dose-only fall, or a rising curve; inactive = flat or poorly fitted curve;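 also: top concentration of the series not given in the record; excess ADP was the control for the full effect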
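Purified YjeE (10 uM) with BODIPY Texas Red-labeled ADP probe (2 uM); compounds pin-transferred, 15 min at room temperature. Binding inhibition read as decreased fluorescence polarization; ADP titration as control.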
Bst PK mod: modulators of Bacillus stearothermophilus pyruvate kinase | partly purified Bacillus stearothermophilus pyruvate kinase, luminescence ATP production; ribose 5-phosphate activator present at AC10 | Potency, µM | actives 1.2% (n = 51,000); in the data active means potency below about 11 µM; inconclusive means mostly about 12 µM to 25 µM; inactive means weaker than that;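 the screen sought inhibitors and activators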;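 also: potency is read from the fitted curve at half-maximal effect; scaled between full activation by ribose 5 phosphate and full inhibition by luteolin; about four in five hits inhibit and the cells do not say which; series up to 57 µM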
Active calls of the source: *; i = inactive; ? = inconclusive; . = not tested or not shown.

no.	Molecule	TsaE inh	Bst PK mod
1	NC(=O)CCn1nc(-c2ccc(Cl)cc2)c2ccccc2c1=O	i	>57
2	CSc1n[nH]c(NCc2cccs2)n1	i	>57
3	Cc1cc(C)n(-c2ccc(C(=O)Nc3sccc3C(N)=O)cc2)n1	i	i
4	Cc1ccc(-c2n[nH]c(=O)c3ccccc23)cc1N	i	>57
5	CCN(CC)CC(C)(C)NS(=O)(=O)c1ccc(Cl)cc1	i	>57
6	Cc1nnc(SC(C)C(=O)NCC2CCCO2)n1-c1ccccc1 (stereo not drawn)	i	>57
7	COCC(=O)Nc1ccc(Nc2ccccc2)cc1	i	>57
8	CN(c1ccccc1)c1nc2ccsc2c(=O)s1	i	>57
9	Cc1nc2cnc(Oc3ccccc3)nc2n(C2CC2)c1=O	i	.
10	O=c1oc2ccccc2c(O)c1/C=N/c1ncccn1	i	>57
11	CC(Sc1nncn1C)C(=O)Nc1nnc(C(C)C)s1 (stereo not drawn)	i	.
12	O=C(NCc1ccccc1)c1cc(=O)nc2sc(-c3ccccc3)nn12	i	>57
13	C[C@H](O)Cn1cnc2c1c(=O)n(C)c(=O)n2C	i	.
14	COCCNC(=O)c1ccccc1-c1nc(-c2ccccc2Cl)no1	i	.
15	CN(C(=O)C1CCOC1)c1nnc(-c2cccnc2)s1 (stereo not drawn)	i	>57
16	Cc1ccccc1CSc1nnc(C)c(=O)[nH]1	i	.
17	O=c1c(-c2ccc(F)cc2)nc2cncnc2n1C1CC1	i	.
18	CCn1ccc(C(=O)Nc2ccc(S(=O)(=O)Nc3ccccc3OC)cc2)n1	i	i
19	CCOC(=O)C1=C(C)SC2=NS(=O)(=O)CCN21	i	>57
20	O=C(Nc1ccc(F)cc1)C1CCC(N2C(=O)c3ccccc3C2=O)CC1 (stereo not drawn)	i	.
21	c1ccc(-c2cccc(-c3ccccn3)n2)nc1	i	>11
22	O=C(C1CCCN(c2nnc(-n3cccc3)s2)C1)N1CCN(c2ccccc2)CC1 (stereo not drawn)	i	.
23	OCC1(c2cc(C(F)(F)F)n[nH]2)CCCCC1	i	>57
24	CCCN1CCN(C(c2cc3cc4c(cc3[nH]c2=O)OCO4)c2nnnn2C(C)(C)C)CC1 (stereo not drawn)	i	>57
25	Nn1c(SCC(=O)Nc2ccccc2)nnc1-c1cccnc1	i	>57
26	O=c1cc(N2CCc3ccccc3C2)[nH]c(=O)n1-c1ccc(Br)cc1	i	>57
27	O=C(NCCc1ccc(Cl)cc1)c1nnc(Cc2ccc(Cl)cc2)o1	i	.
28	Cc1nnsc1-c1nc2ccccc2[nH]1	i	>57
29	CCN(CC)c1ccc2c(c1)C(=O)N(C)C2=O	i	.
30	NCCC[C@@H](CC(=O)N[C@@H]1CCNC[C@H]1C(=O)N[C@H](CC(=O)N[C@@H](CCC(=O)O)CC(=O)O)Cc1c[nH]c2ccccc12)NC(=O)C[C@H](Cc1ccccc1)NC(=O)[C@@H]1CCCC[C@H]1N	i	.

Some of these compounds in order of formula weight, falling.
no.	Molecule	TsaE inh	Bst PK mod
20	O=C(Nc1ccc(F)cc1)C1CCC(N2C(=O)c3ccccc3C2=O)CC1 (stereo not drawn)	i	.
23	OCC1(c2cc(C(F)(F)F)n[nH]2)CCCCC1	i	>57
2	CSc1n[nH]c(NCc2cccs2)n1	i	>57

More results.
no.	Molecule	TsaE inh	Bst PK mod
31	COCCNc1cc(-c2ccccc2CN(C)C)ncn1	i	.
32	O=C(NCCn1cc(SCC(=O)N2CCOCC2)c2ccccc21)c1ccccc1	i	.
33	CN1CCN(P(=O)(c2ccccc2)c2nc3ccccc3s2)CC1 (stereo not drawn)	i	>57
34	CN1CCCC2(CCN(C(=O)c3cccn3C)CC2)C1	i	.
35	CCOc1ccc(OCc2ccc(C(=O)NCc3ccncc3)o2)cc1	i	>57
36	O=C(CSc1nnc2ccccn12)NCCN1C(=O)CSC1=O	i	>57
37	Cc1c(C)n(C(=O)CN2CCC(C(N)=O)CC2)c2ccccc12	i	>57
38	O=C(CCN1C(=O)C2CC=C(Cl)CC2C1=O)N1CCCCC1 (stereo not drawn)	i	>57
39	CCN1CCN(C(c2ccccc2F)c2nnnn2Cc2ccc3c(c2)OCO3)CC1 (stereo not drawn)	i	>57
40	CC(C)NCC(O)COCc1ccc(Cl)cc1 (stereo not drawn)	i	>57
41	CCCOc1cccc(OCCSc2nc(C)cc(=O)[nH]2)c1	i	>57
42	O=C1c2ccccc2NC(c2ccc3c(c2)OCCO3)N1c1ccc2c(c1)OCCO2 (stereo not drawn)	i	.
43	CCOc1ccccc1-n1c(SCC(=O)N(C(C)C)C(C)C)nnc1-c1cccnc1	i	>57
44	CCCCc1ccc(Nc2ncnc3nc[nH]c23)cc1	i	.
45	CC(C)N(Cc1ccccc1)S(=O)(=O)N(C)C	i	>57
46	Cc1cc(Nc2ccc(C)c(F)c2)n2ncnc2n1	i	?
47	CCC(C)(C)n1nnnc1CN1CCSCC1	i	>57
48	CN(CCCNC(=O)Cn1cc2c(n1)CCCC2)C1CCCCC1	i	.
49	O=C(CSc1nnc(Cc2ccccc2)n1-c1ccccc1)N1CCOCC1	i	>57
50	O=C(CSc1nnc(-c2ccncc2)n1-c1ccc(F)cc1)NC(=O)NCc1ccco1	i	>57
51	CCOc1ccccc1NC(=O)CCC(=O)O	i	>57
52	Cc1n[nH]c(C)c1-c1nc2ccccc2[nH]1	i	>57
53	C=C(C)COc1ccc2c(C)c(CC(=O)OC)c(=O)oc2c1C	i	i
54	CC(C)=CC1C(C(=O)Nc2ccc(Br)cn2)C1(C)C (stereo not drawn)	i	.
55	COC(=O)NCCOc1cc(C)ccc1C	i	>57
56	O=C(Oc1cc(=O)oc2ccccc12)c1ccco1	i	>57
57	CCSc1ncc(Cl)c(C(=O)Nc2ccc(S(=O)(=O)Nc3onc(C)c3C)cc2)n1	i	>57
58	O=C(O)[C@H]1CCCC[C@@H]1C(=O)Nc1nc2ccccc2[nH]1	i	.
59	Cn1cccc1C(=O)N1CCC2(CCCN(C(c3ccccc3)c3ccccc3)C2)CC1	i	.
60	CCCCCCCCNC(C)C(O)c1ccc(SC(C)C)cc1 (stereo not drawn)	.	>26
61	COCCN(C(=O)COc1ccccc1)c1nnc(-c2cccnc2)s1	i	>57
62	N#Cc1cnn(-c2ccccc2)c1N	i	>57
63	CCN1CCN(C(c2cccs2)C(C)NC(=O)C(C)C)CC1 (stereo not drawn)	i	.
64	Cc1ccccc1C(=O)Nc1cccc(N)c1	i	>57
65	O=C(C1CCN(S(=O)(=O)c2cccc3cccnc23)CC1)N1CCN(c2ccc(Cl)cc2)CC1	i	.
66	O=C1CCc2cc(S(=O)(=O)NC(Cc3ccccc3)C(=O)NCC3CCCO3)ccc2N1 (stereo not drawn)	i	.
67	CS(=O)(=O)Nc1ccc(C(=O)N2CCCCC2)cc1	i	>57
68	Cc1cccc(OCCCC(=O)Nc2nccs2)c1	i	>57
69	O=S(=O)(c1cccc(S(=O)(=O)N2CCC(Cc3ccccc3)CC2)c1)N1CCOCC1	i	>57
70	CC(C)c1cc(=O)oc2c3c4c(cc12)CCCN4CCC3	i	.
71	COc1ccc(Cn2nnnc2C(c2ccc(N(C)C)cc2)N2CCC(C)CC2)cc1 (stereo not drawn)	i	>57
72	COc1ccccc1N1CCN(C(=O)CSc2ncccc2-c2nc3ccccc3[nH]2)CC1	i	i
73	O=C(Nc1cccc(F)c1)N1CC2(CCN(C(=O)c3cnccn3)CC2)C1	i	.
74	CC(NC(=O)c1cccc(C(F)(F)F)c1)C1CCCO1 (stereo not drawn)	i	>57
75	Cc1cc(C(=O)N2CCCc3ccccc32)no1	i	>57
76	CC1(C)CC(=O)CC(=NCC(=O)O)C1	i	.
77	Cc1cc(/C=N/n2cnnc2)c(C)n1-c1cccc(Cl)c1	i	.
78	C=CCn1c(-c2ccc(OC)c(OC)c2)cs/c1=N\c1ccccn1	i	6.9*
79	O=c1cnc2cnc(N3CCNCC3)nc2n1Cc1ccc(F)cc1	i	.
80	OCCOCCn1c(-c2ccccc2)nc(=S)c2c1CCCC2	i	.
81	N#Cc1ccccc1OCC(=O)Nc1c(C(=O)C2CC2)oc2ccccc12	i	>57
82	COc1ccc(N2C(=O)CC(NC34CC5CC(CC(C5)C3)C4)C2=O)c(OC)c1 (stereo not drawn)	i	>57
83	CC(C)NC(=O)CN1CCN(c2ncccn2)CC1	i	>57
84	CCCCn1c(SCC(=O)Nc2cc(C)on2)nc2ccccc2c1=O	i	>57
85	O=C(O)c1[nH]c2ccccc2c1CC(=O)N1CCOCC1	i	>57
86	COC(=O)Nc1sc(C)nc1-c1ccccc1	i	.
87	Cc1cc(C)n(CC(O)COCc2ccco2)n1 (stereo not drawn)	i	>57
88	COc1ccc(C(C)=O)cc1COC(=O)c1ccc(OCc2c(C)noc2C)cc1	i	>57
89	COc1ccc(-n2c(=O)c(C)nc3cnc(Nc4cccc(OC)c4)nc32)cc1	i	.
90	CCCCCOC(=O)NCC(O)c1ccccc1 (stereo not drawn)	i	.

Structures from the list above containing bromine:
no.	Molecule	TsaE inh	Bst PK mod
26	O=c1cc(N2CCc3ccccc3C2)[nH]c(=O)n1-c1ccc(Br)cc1	i	>57
54	CC(C)=CC1C(C(=O)Nc2ccc(Br)cn2)C1(C)C (stereo not drawn)	i	.

Reprinted at random: three compounds from above.
no.	Molecule	TsaE inh	Bst PK mod
68	Cc1cccc(OCCCC(=O)Nc2nccs2)c1	i	>57
84	CCCCn1c(SCC(=O)Nc2cc(C)on2)nc2ccccc2c1=O	i	>57
73	O=C(Nc1cccc(F)c1)N1CC2(CCN(C(=O)c3cnccn3)CC2)C1	i	.

(list continues)
no.	Molecule	TsaE inh	Bst PK mod
91	O=c1cnn(-c2ccccc2)c(-c2ccccc2)c1	i	.
92	CN(C)C(C(=O)NC1CCCCC1)c1ccc(Cl)cc1 (stereo not drawn)	i	>57
93	C[C@@H](C(=O)Nc1ccc2ccccc2c1)[C@@H]1C[C@@]1(C)[C@@H](NC(=O)c1cnccn1)c1ccccc1	i	.
94	Cn1c(C(=O)O)c(CC(=O)NCc2cccnc2)c2ccccc21	i	>57
95	COc1ccc(NC(=O)CSC2=C(C#N)C(c3ccco3)C3=C(CCCC3=O)N2)c(OC)c1 (stereo not drawn)	.	>26
96	Cc1ccc(S(=O)(=O)N2CCCCC2)cc1C(=O)Nc1ncn[nH]1	i	>57
97	COc1ncc2nc(CCc3ccccc3)c(=O)n(CCc3ccccc3)c2n1	i	.
98	Cc1ccc(NC(=O)CCNS(=O)(=O)c2ccc3c(c2)oc(=O)n3C)cc1C	i	>57
99	COc1ccc(OC)c(NC(=O)c2cc3sccc3n2C)c1	i	.
100	COC(=O)c1cn(NC(=O)c2cnccn2)c(=O)c2ccccc12	i	>57
101	O=C(Cn1nc(C(F)F)cc1C1CC1)NCCC1=CCCCC1	i	>57
102	O=C(Nc1cccnc1)Nc1ccccn1	i	.
103	Cc1cc(C)n(-c2cc(C)c(C)cc2Br)n1	i	?
104	O=C(NCCc1ccccn1)C1CCCN(S(=O)(=O)Cc2ccccc2)C1 (stereo not drawn)	i	>57
105	CCOC(=O)Cc1nnc(NC(=O)CSc2ccccc2)s1	i	>57
106	O=C(CC(C(=O)O)C1CCCO1)NCc1ccccc1 (stereo not drawn)	i	.
107	COc1ccc(N2CCN(C3CC(=O)NC3=O)CC2)cc1 (stereo not drawn)	.	>26
108	CN1[C@@H](CC(=O)c2ccccc2)CCC[C@@H]1C[C@@H](O)c1ccccc1	i	.
109	CCOC(=O)Cc1csc(NC(=O)CSc2nnc(-c3ccc(OC)cc3)n2C)n1	i	>57
110	Cc1nnc(SC(C)C(=O)Nc2ccc(Cl)cn2)n1Cc1ccccc1 (stereo not drawn)	i	>57
111	CC(=O)Nc1ccc(-c2nc3c(C)cccc3[nH]2)cc1	i	.
112	O=c1cc(N2CCN(c3ccccc3)CC2)[nH]c(=O)n1Cc1ccc(F)cc1	i	.
113	O=C1C2ON(c3ccccc3)C(c3ccccc3F)C2C(=O)N1c1ccccc1 (stereo not drawn)	i	>57
114	c1ccc2c(c1)[nH]c1nc(SCCN3CCOCC3)nnc12	i	.
115	CS(=O)(=O)N(CC(=O)O)c1cc(Cl)cc(Cl)c1	i	?
116	CCCCOC(=O)c1cccc(NC(=O)CCC(=O)O)c1	i	.
117	COC(=O)n1c(=O)oc2ccccc21	i	>57
118	C=C(Br)Cn1c(CC(C)C)nc2ccccc21	i	.
119	c1ccc(CCc2nn3c(Cn4nnc5ccccc54)nnc3s2)cc1	i	>57
120	N#Cc1nc(-c2ccc(F)cc2)oc1N1CCCC1	.	9.5*
121	CN1/C(=C\C(=O)COC(=O)Cn2nnc(-c3ccccc3)n2)C(C)(C)c2ccccc21	?	>57
122	CCOc1ccc2c(c1)c1nnc(SCC(=O)N3CCCCC3C)nc1n2C (stereo not drawn)	i	i
123	COc1ccccc1C(=O)N1CCC(C(=O)c2ccc(F)cc2)CC1	i	>57
124	O=C(CN1C(=O)C2C3C=CC(C3)C2C1=O)NCCc1ccccc1Cl (stereo not drawn)	i	>57
125	CCOC(=O)c1cnc(SCc2ccccc2)nc1N	i	.
126	CCOC(=O)c1oc2ccccc2c1CN1CCN(c2ccccc2)CC1	i	>57
127	FC(F)(F)c1ccc(N2CCN(c3cc(-c4ccccc4)nc4ncnn34)CC2)nc1	i	>57
128	Cc1cc(C)c(C#N)c(SCC(=O)Nc2nnc(-c3ccccc3)s2)n1	i	>57
129	O=C(C1CCC(=O)N1Cc1ccccc1Cl)N1CCN(c2ccc(F)cc2)CC1 (stereo not drawn)	i	>57
130	CCCn1c(=O)c(C(=O)Nc2ccccc2C(=O)OC)c(O)c2ccccc21	i	>57
131	Cc1cccc(NC(=O)COc2ccccc2C)n1	i	>57

Some of the compounds tested; rates above refer to the full screens.
